miR-21 FLuc = miR-21 reporter, rising signal | Potency, µM (titrated, usually from 38.3 µM), without a hit: top-dose reporter change, positive = more light | HeLa miR-21 FLuc reporter, luciferase, 48 h | 340,000 tested, under 10 active; active = well fitted rising curve with a large enough effect; inconclusive = small, poorly fitted or top-dose-only effect; inactive = no such curve, though single readings can be large or run the other way;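 note: % of control where 0% means no effect; miR-21 action dims this reporter so a rising signal means less miR-21 action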
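HeLa cells stably expressing CMV-driven firefly luciferase with a downstream miR-21 binding sequence, endogenously expressing miR-21, were treated with titrations (up to about 40uM final) for 48 hours at 37 degree Celsius. Luciferase luminescence was read after lysis.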
Rango-impB inh = inhibitors of Rango-importin beta complex formation | Q14974 | Rango CFP/YFP FRET sensor + importin beta, 45 min | Potency, µM (doses to about 92.2 µM), for the others: at the top dose inhibition of complex formation | 0.031% of 340,000 active | AID 540263; active = rising FRET ratio curve, often small or poorly fitted; inconclusive = mostly compound fluorescence or quenching in the first reads; inactive = flat curves in all reads;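 note: potency is the fitted concentration of half-maximal effect; 0% = DMSO wells and 100% = buffer wells lacking importin beta; nearly all actives have a fitted effect of over 15% in size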
Target sequence (Q14974 whole entry, looked up): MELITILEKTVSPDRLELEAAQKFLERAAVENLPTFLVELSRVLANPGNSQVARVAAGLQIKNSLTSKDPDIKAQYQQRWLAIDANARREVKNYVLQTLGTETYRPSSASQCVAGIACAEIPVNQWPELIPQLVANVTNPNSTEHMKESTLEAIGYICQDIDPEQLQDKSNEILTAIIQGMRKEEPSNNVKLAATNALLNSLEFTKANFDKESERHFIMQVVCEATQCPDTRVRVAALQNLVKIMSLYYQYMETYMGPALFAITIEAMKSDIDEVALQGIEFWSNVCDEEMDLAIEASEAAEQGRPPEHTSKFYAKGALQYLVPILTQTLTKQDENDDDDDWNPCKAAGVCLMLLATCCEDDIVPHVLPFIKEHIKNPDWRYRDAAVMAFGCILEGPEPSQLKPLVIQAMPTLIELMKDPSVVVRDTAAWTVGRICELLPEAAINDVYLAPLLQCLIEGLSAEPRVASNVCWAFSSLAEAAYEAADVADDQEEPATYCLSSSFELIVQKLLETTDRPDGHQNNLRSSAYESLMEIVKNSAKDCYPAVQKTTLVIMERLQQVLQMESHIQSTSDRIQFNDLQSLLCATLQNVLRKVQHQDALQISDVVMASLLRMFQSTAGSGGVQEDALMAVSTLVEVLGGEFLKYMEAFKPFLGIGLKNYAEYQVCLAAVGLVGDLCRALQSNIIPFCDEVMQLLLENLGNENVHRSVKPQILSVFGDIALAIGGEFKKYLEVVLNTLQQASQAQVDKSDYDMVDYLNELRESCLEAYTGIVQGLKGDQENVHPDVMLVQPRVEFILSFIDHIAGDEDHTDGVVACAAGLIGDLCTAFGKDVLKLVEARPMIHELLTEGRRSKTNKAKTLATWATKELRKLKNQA
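Inhibition scored from the CFP 486 nm/YFP 530 nm FRET ratio 45 min after adding 0.125 microM importin beta to 50 nM Rango biosensor preincubated 5 min with compound (room temperature, PBS with DTT, Tween-20, BSA). No-importin wells as positive control.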
Rango release inh = inhibition of RanGTP-driven Rango-importin beta dissociation. O95149+P62826. Biochemical FRET Rango-importin beta, RanGTP-induced dissociation. Potency, µM (highest dose often 46.1 µM), inactives show at the top dose activity change, negative = inhibition. 0.071% of 340,000 active; active means falling FRET ratio curve, often poorly fitted, with flat reads before Ran was added; inconclusive means other falling curves, or compound fluorescence or quenching; inactive means flat or rising ratio curve;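 note: potency is the fitted concentration of half-maximal effect; % of control where 0% means no effect; nearly all actives have a fitted effect of over 45% in size; -100% = wells without RanGTP and RCC1; the record marks most hits as doubtful in a second field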
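Rango (0.1 uM)–importin beta (0.25 uM) complex; RanGTP-RCC1 trigger; 45 min RT; CFP/YFP FRET read.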
GLA inh pH 4.5 = blocks human alpha-galactosidase A at pH 4.5; P06280; purified enzyme, 4-MU-alpha-Gal fluorescence, pH 4.5; activity change, negative = inhibition, % at 105 µM; 230,000 tested, under 10 active; AID 1467; inconclusive = small, poorly fitted or top-dose-only inhibition, or a rising curve; inactive = flat fitted curve, though single readings scatter; no compound was filed as active;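 note: 0% = full activity with enzyme and -100% = basal without enzyme; dose as in the result columns while the protocol names 77 µM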
An asterisk follows results filed as active; ? = inconclusive; . = not tested or not shown; & = joins results of further samples.

miR-21 FLuc	Rango-impB inh	Rango release inh	GLA inh pH 4.5	Structure
2%	-4.2%	5%	-1	COc1ccccc1/C=C(/NC(=O)c1ccc(Cl)cc1Cl)C(=O)O
-1%&-3%	-0.4%	-1%	.	CCc1cccc(NC(=O)c2cccc3c2C(=O)N(C2CCCCC2)C3)c1
.	0.9%	7%	.	CCC(C)N(C(=O)COC(=O)c1nc2nc(C)cc(C)n2n1)C1CCS(=O)(=O)C1 (stereo not given)
-15%	4.2%	12%	3	CCC(C)NC(=O)C1c2cc(OC)c(OC)cc2C(=O)N(C)C1c1ccc(OC)cc1 (stereo not given)
-5%	?	-26%	2	CC1(C)Cc2c(c(N3CCCC3)nc3sc4c(N5CCN(CCO)CC5)ncnc4c23)CO1
-29%	-1.4%	24%	-4	CCCCNC(=O)C1CCN(S(=O)(=O)N2CCCCCC2)CC1
?	1.9%	13%	0	CNc1ccccc1C(C)(C)c1cc(-c2ccc(F)cc2)no1
-2%&1%	0.2%	7%	.	CC1CCCCN1CCCNC(=O)CN1C(=O)CSc2ccc(S(=O)(=O)N3CCOCC3)cc21 (stereo not given)
.	3.7%	-10%	.	O=C(Nc1cccc(S(=O)(=O)NC2=NCCC2)c1)c1ccc(F)cc1
-4%	-0.4%	8%	7	CCc1noc(C)c1C(=O)N1CC(C)OC(C)C1 (stereo not given)
-21%	4.5%	7%	-7	N=c1c2c3c(sc2ncn1CCCO)CCCC3
3%	-5.1%	19%	-4	COc1ccc(Nc2nc(N/N=C/c3ccc(N(C)C)cc3)nc(C)c2[N+](=O)[O-])cc1
0%	-2.5%	-14%	?	CCN(CC)S(=O)(=O)c1cccc(NC(=O)c2ccc(Sc3nncn3C)c([N+](=O)[O-])c2)c1
.	0.9%	-7%	.	COc1ccc(/C=C/C(=O)OCC(=O)N2CCc3ccccc32)cc1
.	0.3%	-10%	.	CCCn1c(SCC(=O)N(CC)c2c(N)n(Cc3ccccc3)c(=O)[nH]c2=O)nnc1-c1ccncc1
0%	-2.2%	-1%	.	CC(CCN1CCN(c2ccccc2)CC1)c1ccccc1 (stereo not given)
-3%	-0.9%	13%	.	COc1cccc2cc(C(=O)C3=C(O)C(=O)N(CCN4CCOCC4)C3c3ccc(C(C)(C)C)cc3)oc12 (stereo not given)
-2%	5.7%	-14%	-4	COC(=O)C[N+](C)(C)CC#Cc1ccccc1
-19%	0.8%	8%	2	CC(C)OCCCN1CN(S(=O)(=O)c2ccc(Cl)cc2)c2nc3ccccc3nc21
-7%	-0.1%	0%	3	COc1ccc(CC(=O)NNC(=S)NCC2CC2)cc1OC
0%	2.5%	5%	-5	CN(CC(=O)Nc1ccc(SC(F)F)cc1)C1CCCCC1
.	?	-5%	.	NC(=O)c1ccsc1NC(=O)c1ccc([N+](=O)[O-])o1
-1%	-5.2%	1%	-3	O=C(Nc1ccccc1C(F)(F)F)N1CCC(N2CCCCC2)CC1
-1%	2.1%	-4%	1	CN(C)CCNC(=O)/C(=N\O)c1ccccn1
-4%	-0.9%	-3%	-15	CCN=C1SC(C(=O)Nc2ccccc2)CC(=O)N1CC (stereo not given)
-3%	9.5%	6%	-11	O=C(O)C1(c2ccccc2)CCN(S(=O)(=O)c2cccs2)CC1
28%	-3.3%	2%	.	CCc1c(C2(O)CCCCC2)[nH]c2ccc(C(F)(F)F)cc12
5%	-0.6%	1%	.	Cc1ccc(C)c(CN2CCC(n3nccc3NC(=O)CCCc3ccccc3)CC2)c1
0%	-2.3%	16%	9	C/C(CC1CC(C)OC1=O)=N\NC(N)=S (stereo not given)
-9%	4.3%	5%	.	O=C(N/N=C/C=N/NC(=O)c1ccco1)c1ccco1
1%	0.3%	7%	2	O=C(COc1ccccc1)N1CCN(c2ncccn2)CC1
7%	?	-1%	5	O=C(CN1CCN(S(=O)(=O)c2ccccc2)CC1)Nc1ccc([N+](=O)[O-])cc1
-14%	.	.	20	c1ccc(Cn2c(-c3cccs3)nc3nc4ccccc4nc32)cc1
.	-3.2%	8%	.	S=C(NCc1ccccc1)N1CCN(C(=S)NCc2ccccc2)CC1
1%	-0.5%	-8%	-1	Cc1nnc(-c2cccc(Br)c2)c2cn(-c3ccc(Br)cc3)nc12
-32%	-1.9%	1%	-9	N#Cc1c(N)nc2c(c1N)CC(=O)N2c1ccccc1-c1ccccc1
9%	-5.3%	5%	-2	O=C1Nc2ccc(Cl)cc2C(C#CC2CC2)(C(F)(F)F)O1 (stereo not given)
-8%	-2.1%	-22%	.	COc1ccc(NC(=O)c2cc(-c3ccc(OC)c(OC)c3)nc3ccccc23)c(OC)c1
.	-3.3%	-10%	.	COc1ccc(CCNC(=O)c2cc3cc(F)ccc3nc2C)cc1OC
30%	.	.	-3	CCOC(=O)c1c(C)[nH]c(C2=NNC(=Nc3cccc(Cl)c3)SC2)c1C
0%	-0.5%	-1%	-3	CN(Cc1ccccc1)Cc1nc2c([nH]1)c(=O)n(C)c(=O)n2C
-6%	-0.8%	-9%	.	CC(C)(C)c1cc(C(=O)N/N=C/c2ccncc2)n[nH]1
-15%	4.2%	2%	.	CCn1ccc(C(=O)Nc2ncc(C)s2)n1
-5%	-3.2%	-18%	-2	Cn1c(NCCCO)nc2c1c(=O)n(Cc1ccccc1F)c(=O)n2C
0%	-0.6%	-16%	-7	O=C(CCS(=O)(=O)Cc1ccccc1F)NCc1ccccc1Cl
2%	5.7%	-3%	4	COc1ccc(CSc2nc3ccccc3[nH]2)cc1
-2%	6.1%	-2%	3	Cc1cccc(N(Cc2ccc(Cl)cc2)S(C)(=O)=O)c1
15%	-1.4%	10%	-12	Cc1cc2cc(CN(CC3CCCO3)C(=S)Nc3ccccc3)c(=O)[nH]c2cc1C (stereo not given)
0%	-0.2%	1%	.	O=C(c1cccc(NC2=NC3CS(=O)(=O)CC3S2)c1)N1CCN(c2cccc(Cl)c2)CC1 (stereo not given)
5%	0.6%	12%	0	CCn1c(SCc2ccc(F)cc2)nnc1-c1nn(-c2ccccc2)ccc1=O
-3%	-1.0%&-1.3%	5%&-17%	3	CCCCCC(=O)N1CCN(CCN=CC2=C(O)CC(c3ccc(OC)cc3)CC2=O)CC1 (stereo not given)
-1%	1.0%	-9%	.	CN(C)CCCN(C(=O)c1ccc(S(=O)(=O)N2CCCCCC2)cc1)c1nc2ccc(Br)cc2s1
1%	-3.1%	-3%	0	O=C(O)CCCNC(=O)/C(=C\C=C\c1ccccc1)NC(=O)c1ccccc1Cl
-3%	2.8%	-5%	-15	COc1ccccc1N1N=C(C(=O)c2ccccc2)C2C(=O)N(c3ccc(Br)cc3)C(=O)C21 (stereo not given)
9%	0.8%	-4%	0	CN(C(=O)CSc1nc(-c2ccccc2)c(-c2ccccc2)o1)C1CCS(=O)(=O)C1 (stereo not given)
2%	0.1%	-9%	.	C#CCOc1ccc(/C=C2/C(=O)ON=C2C)cc1OCC

Next section:
miR-21 FLuc	Rango-impB inh	Rango release inh	GLA inh pH 4.5	Structure
11%	2.6%	4%	7	COc1ccc(NC(=S)NC(NC(=O)/C=C/c2ccccc2)C(Cl)(Cl)Cl)cc1 (stereo not given)
-4%	-1.9%	?	-2	Cc1ccc(C2CC(c3cccc(Br)c3)n3nc(N)nc3N2)cc1 (stereo not given)
1%	-2.8%	-6%	13	O=C(CN1CCC(O)(c2ccc3c(c2)OCO3)CC1)N1CCOCC1
-37%	-0.1%	5%	.	Cc1c(CC(=O)NCC(C)C)c(=O)oc2cc3c(cc12)CCC(C)(C)O3
1%	0.8%	-3%	.	CCc1nc(CNC(=O)C2CCC(=O)N(Cc3cccc(OC)c3)C2)no1 (stereo not given)
-1%	-4.9%	18%	6	Cc1cc(C)nc(CCNC(=O)c2cc(COc3c(F)cccc3F)on2)n1
-12%	-2.7%	-6%	-9	COc1cc(/C=N/Nc2ccc(Cl)c(C(=O)O)c2)ccc1OCC(=O)N1C(C)CCCC1C (stereo not given)
0%	-3.5%	12%	.	CCn1cc(C(=O)NCc2ccccc2F)c(=O)c2ccc(C)nc21
1%	0.6%	41%	.	COC(=O)[C@@H](NC(=O)c1ccccc1OC1CCN(S(C)(=O)=O)CC1)C(C)C
0%	-1.0%	-8%	.	O=C(CCS(=O)(=O)c1ccc(Cl)cc1)Nc1nc(-c2cccnc2)cs1
-13%	2.7%	-7%	.	Cc1cc(NS(=O)(=O)c2ccc(NC(=O)/C=C/c3c(F)cccc3Cl)cc2)nc(C)n1
-1%	-0.2%	10%	4	CCOC(=O)C1=C(C)NC(=O)CC1c1ccccc1OC (stereo not given)
-7%	-0.1%	-3%	-3	Cc1ccc(CSCCNC(=O)/C=C/c2ccccc2Cl)cc1
-8%	4.6%	-3%	8	C/C(=N\NC(=O)COc1ccc(C)cc1Br)c1cc([N+](=O)[O-])cs1
23%	4.6%	-8%	-12	CC1COC(Cn2c3ccccc3c3ccccc32)O1 (stereo not given)
2%	0.4%	-7%	.	O=S(=O)(NC1CCCCC1N1CCCCC1)c1ccccc1 (stereo not given)
-2%	2.5%	-6%	6	O=C(CN(C(=O)c1ccc(Cl)cc1)N1C(=O)C2C3C=CC(C3)C2C1=O)c1cccs1 (stereo not given)
13%	-1.3%	-1%	-8	Cc1cc(C)cc(N(C(=O)c2nsc(Cl)c2Cl)C(C(=O)NC2CCCC2)c2ccc(O)cc2)c1 (stereo not given)
-9%	-2.9%	-6%	-9	CC1(C)Cc2c(sc(NC(=O)C(C)(C)C)c2C#N)C(C)(C)N1
0%	?	14%	-2	Cn1c2ccccc2c2cc([N+](=O)[O-])ccc21
.	-5.6%	0%	.	CN(C(=O)c1ccc(NC(=O)Cc2cccc(NC(=O)C3CCN(C(=O)c4ccccc4)CC3)c2)cc1)C1CC1
.	-0.7%	-12%	.	CCOC(=O)C1=C(COC(=O)CCOc2ccc(OC)cc2)NC(=O)NC1C (stereo not given)
.	1.6%	-21%	.	Cc1ccc(-c2csc(NCCc3nc4cc(Cl)c(Cl)cc4n3CCOCCO)n2)cc1
0%	3.6%	19%	.	CC(C)NC(=O)N1CCC(n2nccc2NC(=O)CCOc2ccccc2)CC1
.	-3.8%	13%	.	O=C(c1ccc([N+](=O)[O-])o1)N1CCN(c2nc3c(Cl)cccc3s2)CC1
1%	4.0%	8%	-7	C/C(=N\NC(=O)c1ccc(CN2CCOCC2)cc1)c1cccc([N+](=O)[O-])c1

Structures above containing fluorine:
miR-21 FLuc	Rango-impB inh	Rango release inh	GLA inh pH 4.5	Structure
?	1.9%	13%	0	CNc1ccccc1C(C)(C)c1cc(-c2ccc(F)cc2)no1
.	3.7%	-10%	.	O=C(Nc1cccc(S(=O)(=O)NC2=NCCC2)c1)c1ccc(F)cc1
0%	2.5%	5%	-5	CN(CC(=O)Nc1ccc(SC(F)F)cc1)C1CCCCC1
-1%	-5.2%	1%	-3	O=C(Nc1ccccc1C(F)(F)F)N1CCC(N2CCCCC2)CC1
28%	-3.3%	2%	.	CCc1c(C2(O)CCCCC2)[nH]c2ccc(C(F)(F)F)cc12
9%	-5.3%	5%	-2	O=C1Nc2ccc(Cl)cc2C(C#CC2CC2)(C(F)(F)F)O1 (stereo not given)
.	-3.3%	-10%	.	COc1ccc(CCNC(=O)c2cc3cc(F)ccc3nc2C)cc1OC
-5%	-3.2%	-18%	-2	Cn1c(NCCCO)nc2c1c(=O)n(Cc1ccccc1F)c(=O)n2C
0%	-0.6%	-16%	-7	O=C(CCS(=O)(=O)Cc1ccccc1F)NCc1ccccc1Cl
5%	0.6%	12%	0	CCn1c(SCc2ccc(F)cc2)nnc1-c1nn(-c2ccccc2)ccc1=O
-1%	-4.9%	18%	6	Cc1cc(C)nc(CCNC(=O)c2cc(COc3c(F)cccc3F)on2)n1
0%	-3.5%	12%	.	CCn1cc(C(=O)NCc2ccccc2F)c(=O)c2ccc(C)nc21
-13%	2.7%	-7%	.	Cc1cc(NS(=O)(=O)c2ccc(NC(=O)/C=C/c3c(F)cccc3Cl)cc2)nc(C)n1

Bioassay records from PubChem.

Some of the compounds tested, so the mix of outcomes need not match the whole.
